GLA inh pH 4.5 = blocks human alpha-galactosidase A at pH 4.5. activity change, negative = inhibition, % at 105 µM. P06280. purified enzyme, 4-MU-alpha-Gal fluorescence, pH 4.5. 230,000 tested, under 10 active; inconclusive = small, poorly fitted or top-dose-only inhibition, or a rising curve; inactive = flat fitted curve, though single readings scatter; no compound was filed as active;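 further: 0% = full activity with enzyme and -100% = basal without enzyme; dose as in the result columns while the protocol names 77 µM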
Target sequence (P06280 whole entry, looked up): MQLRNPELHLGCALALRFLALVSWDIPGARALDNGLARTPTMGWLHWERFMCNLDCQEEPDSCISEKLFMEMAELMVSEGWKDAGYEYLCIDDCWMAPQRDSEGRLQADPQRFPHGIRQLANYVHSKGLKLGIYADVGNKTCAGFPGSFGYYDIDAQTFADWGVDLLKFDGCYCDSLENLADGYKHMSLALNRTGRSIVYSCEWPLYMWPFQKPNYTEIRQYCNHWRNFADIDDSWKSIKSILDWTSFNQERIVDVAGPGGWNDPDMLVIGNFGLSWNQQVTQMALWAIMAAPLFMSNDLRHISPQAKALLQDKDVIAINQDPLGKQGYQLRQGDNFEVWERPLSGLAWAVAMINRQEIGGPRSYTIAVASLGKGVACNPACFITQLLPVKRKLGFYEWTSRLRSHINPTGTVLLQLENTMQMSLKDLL
Rango dissoc inh = prevents RanGTP from dissociating the Rango-importin beta complex; Biochemical FRET Rango-importin beta, RanGTP-induced dissociation; Potency, µM (top dose mostly 46.1 µM), for inactives: at the top dose activity change, negative = inhibition; actives 0.071% (n = 340,000); AID 540253; active means falling FRET ratio curve, often poorly fitted, with flat reads before Ran was added; inconclusive means other falling curves, or compound fluorescence or quenching; inactive means flat or rising ratio curve;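 further: potency means the concentration at half of the fitted maximal effect; % of control where 0% means no effect; nearly all actives have a fitted effect of over 45% in size; -100% = wells without RanGTP and RCC1; the record marks most hits as doubtful in a second field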
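FRET read at 45 min, room temperature: inhibitors block the CFP/YFP signal rise when RanGTP (0.6 uM Ran, 2 mM GTP, 0.2 uM RCC1) frees Rango (0.1 uM) from importin beta (0.25 uM). Pre-read after 5 min compound exposure flags interference.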
miR-21 FLuc = raises the signal of a miR-21 reporter | HeLa miR-21 FLuc reporter, luciferase, 48 h | Potency, µM (top dose mostly 38.3 µM), for inactives: at the highest dose reporter change, positive = more light | 340,000 tested, under 10 active; active = well fitted rising curve with a large enough effect; inconclusive = small, poorly fitted or top-dose-only effect; inactive = no such curve, though single readings can be large or run the other way;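 further: % of control where 0% means no effect; miR-21 action dims this reporter so a rising signal means less miR-21 action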
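HeLa cells stably expressing CMV-driven firefly luciferase with a downstream miR-21 binding sequence, endogenously expressing miR-21, were treated with titrations (up to about 40uM final) for 48 hours at 37 degree Celsius. Luciferase luminescence was read after lysis.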
Rango-impB inh = prevents formation of the Rango-importin beta complex; Q14974; Rango CFP/YFP FRET sensor + importin beta, 45 min; Potency, µM (top dose mostly 92.2 µM), for inactives: top-dose inhibition of complex formation; actives 0.031% (n = 340,000); AID 540263; active = rising FRET ratio curve, often small or poorly fitted; inconclusive = mostly compound fluorescence or quenching in the first reads; inactive = flat curves in all reads;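 further: potency means the concentration at half of the fitted maximal effect; 0% = DMSO wells and 100% = buffer wells lacking importin beta; nearly all actives have a fitted effect of over 15% in size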
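FRET biosensor (snurportin 1 IBB flanked by EYFP and cerulean), 50 nM, with compound 5 min, then 0.125 microM importin beta in PBS, 1 mM DTT, 0.02% Tween-20, 0.1% BSA. CFP/YFP ratio read after 45 min at room temperature; pre-read flags interference.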
* = called active by the depositor; ? = inconclusive; . = no result given; & = joins results of further samples. The list is partial, so the mix of outcomes need not match the whole.

miR-21 FLuc	Rango dissoc inh	GLA inh pH 4.5	Rango-impB inh	structure
-9%	-2%	.	0.5%	c1ccc2c(OCCCCN3CCOCC3)cccc2c1
5%	17%	.	3.5%	CCc1nccn1CCC(=O)N1CCCC(Nc2ccc(C(C)C)cc2)C1 (stereo not given)
-2%	1%	.	-2.3%	CC(C)(CNC(=O)CC1C(=O)NCCN1Cc1cccc(F)c1F)N1CCOCC1 (stereo not given)
2%	-28%	6&-3	?	c1ccc(-c2c3ccccc3nc3[nH]c4ccccc4c23)cc1
-12%	3%	-2	1.2%	Cc1nn2c(NCCCN(C)C)c3c(nc2c1-c1ccccc1)CCCC3
-90%	-1%	-12	-0.1%	Cc1ccccc1OCCNC(=O)c1ccc2ccccc2n1
-1%	2%	.	0.1%	O=C(NCc1ccco1)c1cccc(S(=O)(=O)N2CCCC2)c1
-2%	0%	-5	-3.3%	O=c1nc(N(c2ccccc2)c2ccccc2)[nH]c(=O)[nH]1
1%	38%	.	0.1%	CN(C)C(=O)CCC(=O)N(C)CC1CCCN(CCc2ccc(F)cc2)C1 (stereo not given)
-6%	-17%	1	9.3%	CCCC(=O)N1CCN(c2ccc([N+](=O)[O-])cc2Cl)CC1
-5%	2%	1	-3.7%	O=C(N/N=C/c1ccccc1C(=O)O)c1ccccc1Br
5%	4%	0	1.7%	CCOC(=O)C1=C(N)Oc2c(oc(CO)cc2=O)C1c1c(F)cccc1Cl (stereo not given)
0%	-2%	.	2.1%	CC1CCCCN1S(=O)(=O)c1ccc(S(=O)(=O)N2CCCC2)cc1 (stereo not given)
.	-10%	.	-10%	CC(=O)c1cccc(NC(=O)COC(=O)CCNS(=O)(=O)c2ccccc2)c1
-3%	0%	-2	-0.8%	CN(C)Cc1cccc([N+](=O)[O-])c1O
.	-7%	.	0.8%	CC(=O)c1sc(NC(=O)CCN2C(=O)C3CC=CCC3C2=O)nc1-c1ccccc1 (stereo not given)
-22%	-2%	-1	-0.5%	COc1cc(CNCC(O)c2ccccc2)ccc1OCc1ccc(Cl)nc1 (stereo not given)
-1%	-2%	4	7.8%	COCCNC(=O)c1ccccc1NC(=O)Cc1ccccc1[N+](=O)[O-]
3%	-12%	4	-0.9%	O=S(=O)(NCCc1ccncc1)c1ccccc1
21%	-7%	0	-1.5%	Cc1ccc(C(=O)N2CCN(c3ccc(C(F)(F)F)cn3)CC2)c(C)c1

3 compounds from above, arranged by number of heavy atoms, smallest number first:
miR-21 FLuc	Rango dissoc inh	GLA inh pH 4.5	Rango-impB inh	structure
-6%	-17%	1	9.3%	CCCC(=O)N1CCN(c2ccc([N+](=O)[O-])cc2Cl)CC1
2%	-28%	6&-3	?	c1ccc(-c2c3ccccc3nc3[nH]c4ccccc4c23)cc1
5%	4%	0	1.7%	CCOC(=O)C1=C(N)Oc2c(oc(CO)cc2=O)C1c1c(F)cccc1Cl (stereo not given)

Among those listed so far, two have an NH in an aromatic ring.
miR-21 FLuc	Rango dissoc inh	GLA inh pH 4.5	Rango-impB inh	structure
2%	-28%	6&-3	?	c1ccc(-c2c3ccccc3nc3[nH]c4ccccc4c23)cc1
-2%	0%	-5	-3.3%	O=c1nc(N(c2ccccc2)c2ccccc2)[nH]c(=O)[nH]1

The results go on:
miR-21 FLuc	Rango dissoc inh	GLA inh pH 4.5	Rango-impB inh	structure
.	10%	.	-3.6%	CC(C)(C)[C@H]1COC(=O)[C@@H](Cc2ccc(F)cc2)C/C=C\C[C@@H](CC(=O)N[C@H](CO)Cc2ccccc2)C(=O)N1
-16%	-3%	-1	-0.4%	CCn1c(C)nc2cc(C(=O)NNC(=O)c3ccc(Cl)nc3)ccc21
-6%	3%	1	3.5%	O=C(Cc1n[nH]c(=O)c2ccccc12)NCc1ccccn1
5%	-7%	.	0.3%	CCOC(=O)c1cnc(SCC(=O)NNC(=O)c2ccco2)nc1N
-5%	2%	.	1.1%	COc1cccc(OCC(=O)N(C)Cc2nc(-c3cccc(C)c3)no2)c1
-4%	2%	.	-0.1%	CN1CCN(CCCNC(=O)CCN2C(=O)COc3ccccc32)CC1
-7%	1%	.	0.2%	Cc1ccc(C(C)C)cc1OCCn1cncn1
1%	-1%	2	-0.2%	O=C1c2cccnc2C(=O)N1Cc1cccs1
3%	-4%	3	6.2%	COc1ccc(OCC(=O)Nc2ccccc2-c2ccccc2)cc1
-4%	?	-11	?	COc1ccc(CNC(=O)/C(C#N)=C2\N=C(NC(=O)c3cccs3)c3ccccc32)cc1
?	-12%	-7	5.7%	O=C(Nc1cccc(C(F)(F)F)c1)Oc1ccc(Cl)c2cccnc12
-2%	-25%	8	0.7%	Cc1ccc(S(=O)(=O)N2CCN(S(=O)(=O)N3CCOCC3)CC2)cc1C
0%	2%	.	1.2%	CCOC(=O)C(Cc1ccccc1)NC(=O)CCc1nnc2ccc(N3CCOCC3)nn12 (stereo not given)
0%	-17%	-10	-6.4%	O=C(CCCCCN1C(=O)c2ccccc2C1=O)Oc1ccc2c3c(c(=O)oc2c1)CCC3
11%	-4%	-27	-0.1%	O=C(C1CCN(S(=O)(=O)c2cccc3nsnc23)CC1)N1CC=C(c2ccccc2)CC1
-14%	-4%	-9	-6.0%	Cc1oc(C(=O)Nc2ccc(O)cc2)cc1COc1ccccc1
30%	-10%	-2	1.8%	CCOc1cccc(NC(=O)C2CCCN(S(=O)(=O)c3ccc(OC)cc3)C2)c1 (stereo not given)
2%	-10%	6	-3.0%	O=C(CCC(=O)NNC(=O)COc1ccc(Br)cc1)NCc1ccccc1
-8%	0%	-29	?	O=C(Nc1ccc2c(c1)CCC2)c1cc(S(=O)(=O)N2CCN(c3ccccc3)CC2)ccc1Cl
0%	-9%	-17	0.2%	Nc1nonc1-c1nc2ccccc2n1CCC(=O)O
-6%	5%	.	-0.4%	CCOc1ccc(-c2nc(CS(=O)(=O)CC(=O)NCc3ccc(F)cc3)c(C)o2)cc1
-5%	8%	-2	2.6%	O=C(Cn1c(=O)oc2ccccc21)NC(=O)NCc1ccccc1
.	0%	.	?	COc1ccc(O)c(C(=O)c2cnn(C(=O)c3cccc(N(C)C)c3)c2)c1
-33%	5%	1	?	O=C(Nc1cccnc1)Nc1ccc2c(c1)OCO2
-12%	-12%	-6	0.3%	COc1cc(C)ccc1OCCOCCOc1ccc(C)cc1[N+](=O)[O-]
0%	11%	5	-3.6%	CCC(=O)N1c2ccc(S(=O)(=O)CCC(=O)N3CCn4c3nc3ccccc34)cc2CC1C (stereo not given)
.	-3%	.	-1.7%	O=C(COC(=O)c1cc(S(=O)(=O)N2CCOCC2)ccc1F)NCCc1ccc(F)cc1
-2%	0%	6	1.7%	O=C(c1cc([N+](=O)[O-])cc([N+](=O)[O-])c1)N(Cc1nnc(-c2ccccc2Cl)o1)C1CC1
.	-24%	.	-3.7%	CC#CCN1c2ccccc2[C@]23C[C@@H](C(=O)OC)N(C(=O)NC(C)(C)C)C2=NC(C(=O)OC)=C(C(=O)OC)[C@H]13
.	13%	.	0.4%	O=[N+]([O-])/C=C\c1ccc(N2CCOCC2)cc1
.	10%	.	-1.4%	C#CCOCCOCCOCCNc1nc(N2CCN(C(=O)[C@H](CCC(=O)O)n3cc(CN)nn3)CC2)nc(N2CCN(C(=O)[C@H](CCCN=C(N)N)n3cc(C(N)[C@@H](C)CC)nn3)CC2)n1 (stereo not given in full)
23%	-7%	.	-0.3%	O=C1CN(C(=O)c2c(F)cccc2F)C(c2ccc(F)cc2)c2cc(Br)ccc2N1 (stereo not given)
-9%	-21%	-9	-1.9%	CC1Oc2ccccc2C=C1C1/C(=C(/O)c2ccccc2)C(=O)C(=O)N1CCCN(C)C (stereo not given)
-46%	-6%	0	-0.7%	CC(C)(C)c1ccc(C(=O)NNC(=O)c2ccccc2Br)cc1
.	11%	.	1.0%	CCOC(=O)c1c(C)[nH]c(C(=O)NNC(=O)c2ccc(Br)cc2)c1C
-21%	-6%	6	0.2%	c1nc(NC2CCCCC2)c2[nH]cnc2n1
2%	-4%	6	-0.1%	Cc1ccc(S(=O)(=O)NCC2CCC(C(=O)NCc3cccs3)CC2)cc1 (stereo not given)
0%	-1%	-16	0.3%	COc1ccc(S(=O)(=O)NC(CCSC)C(=O)NC2CCCCC2)cc1 (stereo not given)
-2%	11%	-2	1.7%	CCn1c(-c2ccccc2Cl)nn(CC(=O)NCCc2ccccc2)c1=S
0%	2%	-2	2.9%	CCOc1cc(CNc2ncn[nH]2)ccc1OCC(=O)NC(C)(C)C
3%	-10%	.	-2.2%	COc1c(C)cc(S(=O)(=O)NCc2ccco2)c(C)c1C
-3%	-9%	3	-2.0%	C=CCN1N=C(c2ccc(NC(=O)c3ccccc3)cc2)CSC1=O
.	-3%	.	-0.4%	CC1CC(C)CN(C(=O)COC(=O)c2nccnc2N)C1 (stereo not given)
.	-1%	.	0.2%	CC1=CC2C(C3C=CC2(C)C(=O)C3(C)O)C(C)(O)C1=O (stereo not given)
3%	-19%	.	-0.3%	O=C(CCl)NC(Cc1c[nH]c2ccc(OCc3ccccc3)cc12)C(=O)O (stereo not given)
-2%	-7%	9	0.0%	CS(=O)(=O)N(CC(=O)Nc1c(F)cccc1F)c1ccc(C23CC4CC(CC(C4)C2)C3)cc1
.	-12%	.	-3.3%	CC(=NNC(=S)N1CCCCCC1)c1ccccn1
1%	-6%	2	2.5%	O=C(C1=C[C@@H](c2ccccc2)C[C@@H](OCCCCO)O1)N1CCN(Cc2ccc3c(c2)OCO3)CC1
0%	14%	.	-1.0%	Cc1cc(C)cc(NC(=O)CSCc2cc(=O)n3ccsc3n2)c1
-11%	12%	.	-2.0%	COc1cc(/C=C/C(=O)NC(C)C2CC3CCC2C3)cc(OC)c1OC (stereo not given)
0%	-1%	4	-0.3%	CCOC(=O)c1ccccc1Nc1cn(C(C)=O)c2ccccc12
-1%	0%	.	-1.0%	CCOC(=O)N1CCN(C(=O)C(=O)Nc2sc3c(c2C#N)CC(C)(C)OC3)CC1
4%	12%	.	-0.6%	COC(c1ccccc1)c1nc2ccccc2[nH]c1=O (stereo not given)
21%	-19%	.	-4.7%	O=C1NC(c2ccc(Br)cc2)Nc2ccccc21 (stereo not given)
16%	-17%	2	-4.3%	COc1ccc(/C=C/c2ccncc2)c2ccccc12
-2%	-8%	-1	-1.1%	Cc1ccc(OCCCC(=O)Nc2ccc3c(c2)OCO3)cc1
.	20%	.	0.4%	CN(C(=O)COC(=O)c1cc2ccccc2cc1O)C1CCCCC1
-2%	-8%	-3	0.0%	CC(=O)Nc1nc(-c2ccc([N+](=O)[O-])cc2)cs1
0%	18%	-1	3.1%	CCC(C)(C)NC(=O)CN(C(=O)c1csnn1)c1ccccc1-c1ccccc1
-7%	-14%	-7	0.1%	Cc1cccc(NC(=S)N2CCN(Cc3ccc4c(c3)OCO4)CC2)c1C

Compound profiles, from the list above:
`CC(=O)Nc1nc(-c2ccc([N+](=O)[O-])cc2)cs1` across the screens: miR-21 FLuc = -2%; Rango dissoc inh = -8%; GLA inh pH 4.5 = -3; Rango-impB inh = 0.0%
`COc1cc(/C=C/C(=O)NC(C)C2CC3CCC2C3)cc(OC)c1OC` (stereo not given) across the screens: miR-21 FLuc = -11%; Rango dissoc inh = 12%; GLA inh pH 4.5 = .; Rango-impB inh = -2.0%

More structures follow.
miR-21 FLuc	Rango dissoc inh	GLA inh pH 4.5	Rango-impB inh	structure
-5%	9%	2	-0.3%	CC1CN(S(=O)(=O)c2cccc(-c3csc(-c4ccccc4)n3)c2)CC(C)O1 (stereo not given)
-3%	5%	.	-0.1%	CC(C)(C)c1ccc(C(=O)N/C(=C\c2cccc([N+](=O)[O-])c2)C(=O)Nc2cccc(C(=O)O)c2)cc1
-3%	6%	-7	-5.4%	CCOC(=O)N1CCN(CC(O)c2ccc3c(c2)CCN3)CC1 (stereo not given)
0%	-14%	1	0.0%	Cn1ncc(-c2ccno2)c1C(=O)O
-32%	?	-10	?	O=C(CN1C(=O)S/C(=C\C=C\c2ccccc2)C1=O)Nc1ccc(O)cc1
-5%	10%	-2	-2.4%	Cc1ccc2nc(Cl)c(/C=N/NC(=O)c3ccccc3O)cc2c1
-33%	0%	-6	-3.5%	COC(=O)c1c(-c2cccc(C)c2)csc1NC(=O)C1CCCO1 (stereo not given)

Assay outcomes from PubChem.
